# GIRK2 act – activators of human GIRK2 potassium channels; G protein-activated inward rectifier potassium channel 2 (Homo sapiens), P48051; HEK293-GIRK2 thallium flux, Thallos fluorescence; calls only for hits at 25 µM; 0.05% of 63,000 active;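 active = among the strongest 0.2% of first-round signals and kept after retests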;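 also: first round at about 10 µM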
# Target sequence (P48051 whole entry, looked up): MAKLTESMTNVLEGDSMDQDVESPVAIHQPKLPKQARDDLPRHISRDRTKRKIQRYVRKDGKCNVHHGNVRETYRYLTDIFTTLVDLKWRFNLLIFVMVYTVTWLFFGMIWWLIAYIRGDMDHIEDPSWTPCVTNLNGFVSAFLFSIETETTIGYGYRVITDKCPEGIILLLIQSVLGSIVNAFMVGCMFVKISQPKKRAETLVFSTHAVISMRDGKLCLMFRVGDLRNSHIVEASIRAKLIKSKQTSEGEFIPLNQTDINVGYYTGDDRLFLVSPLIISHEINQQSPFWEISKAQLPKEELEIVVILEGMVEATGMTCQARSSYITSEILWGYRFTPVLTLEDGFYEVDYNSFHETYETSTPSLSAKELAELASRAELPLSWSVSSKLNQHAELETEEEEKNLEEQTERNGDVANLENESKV
# Calls only; i = inactive. Some of the compounds tested; the hit share may differ from the screen's.
nr	SMILES	GIRK2 act
1	COc1ccc(NC(=O)Nc2nccn(-c3cccc(Cl)c3)c2=O)cc1OC	i
2	Cc1nccn1CC1CCN(C(=O)CSc2ccc(F)cc2)CC1	i
3	O=C(CSc1nnc(-c2ccncc2)o1)c1cccs1	i
4	COc1ccc(OC)c(-c2cc(C(=O)Nc3ncc(C)s3)[nH]n2)c1	i
5	CCOc1ccc2ccccc2c1C(=O)NCC1(c2cccs2)CCOCC1	i
6	O=C(Cn1cnc2c(sc3cccc(F)c32)c1=O)Nc1ccc(Br)cc1F	i
7	Cc1noc(C)c1CCC(=O)N1CCC(Oc2cnccn2)CC1	i
8	O=C(Cn1cnc2c(-c3ccncc3)nsc2c1=O)Nc1cccc(Cl)c1	i
9	CCOc1ccc(N(C)S(=O)(=O)c2ccsc2C(=O)NC2CCCCC2)cc1	i
10	O=C(O)C1CCN(S(=O)(=O)c2ccc3ccccc3c2)CC1	i
11	CCCNC(=O)NS(=O)(=O)c1ccc(Cl)cc1	i
12	COC(=O)c1ccc(C(=O)N2CC(Oc3nc4c(F)cccc4s3)C2)cc1	i
13	Cc1ccc(Oc2cccc(C(=O)N3CCN(c4cc(Nc5ccccn5)nc(C)n4)CC3)c2)nn1	i
14	Cc1nnc(NC(=O)C2CSCCC(=O)N2)s1 (centres undefined)	i
15	O=C(Oc1ccc2c(=O)c(-c3ccccc3)coc2c1)c1ccc(F)cc1	i
16	NC(=O)c1ncn(C2OC(CO)C(O)C2O)n1 (centres undefined)	i
17	O=c1ccc(-n2cccn2)nn1CCNS(=O)(=O)/C=C/c1ccccc1	i
18	O=C(c1cc(Br)ccc1Cl)N1CCC(Oc2cnccn2)CC1	i
19	COc1ccc(OCCn2c(CCNC(=O)C3CCCCC3)nc3ccccc32)cc1	i
20	C[C@@H]1CC[C@]2(C(=O)O)CC[C@]3(C(=O)O)C(=CCC4[C@@]5(C)CC[C@H](O[C@@H]6O[C@H](C)[C@H](O)[C@H](O)[C@H]6O)C(C)(C)C5CC[C@]43C)C2[C@H]1C (some centres undefined)	i

# The list continues.
nr	SMILES	GIRK2 act
21	CCc1ccc(NC(=O)C(=O)NCCc2ccc3c(c2)CCCN3C)cc1	i
22	O=C(NCCCO)NCC12CC3CC(CC(C3)C1)C2	i
23	Cc1oc2c3c(ccc2c(=O)c1-c1ccccc1)OCN(Cc1cccnc1)C3	i
24	COCCNC(=O)C(=O)NCCN1CCN(c2ccccc2)CC1	i
25	Cc1cccc2c1ncn1c(=O)n(CC(=O)NCc3ccccc3)nc21	i
26	CNc1cc(C)nc2c(-c3ccccc3)c(C(F)(F)F)nn12	i
27	COc1ccc(C2(C(=O)NCCC(O)c3cc(C)oc3C)CCOCC2)cc1 (centres undefined)	i
28	CC(=O)N1CCc2c(sc(NC(=O)c3ccco3)c2-c2nc3ccccc3s2)C1	i
29	COc1ccc(/C=C2\Oc3cc(OS(=O)(=O)c4ccccc4)ccc3C2=O)c(OC)c1OC	i
30	Cc1cc(C)c(NC(=O)C(=O)NCCN2CCN(c3ccccc3F)CC2)c(C)c1	i
31	C=CCN1CC(c2nc3ccccc3n2Cc2cccc3ccccc23)CC1=O (centres undefined)	i
32	COc1ccc(NC(C)=O)cc1NC(=O)c1cc(=O)c(OC)co1	i
33	CCCCn1c(=O)c2sccc2n2c(CCC(=O)NCc3ccc(C(F)(F)F)cc3)nnc12	i
34	CCCCCCCCCCCCC/C=C/[C@H](O)[C@@H](CO)NC(=O)CCCCCCCCCCCCCCCCCCCCCCC	i
35	O=C(CSc1ccc(F)cc1)Nc1ccc(-n2nnc(C(=O)N3CCCC3)n2)cc1	i
36	CCOC(=O)c1ccccc1NC(=O)Cn1cc(-c2ccccc2)c2ncn(C(C)C)c(=O)c21	i
37	O=C(Nc1nc(-c2ccccc2)ns1)c1ccc(Cl)cc1	i
38	COc1cc(COCC2CCN(S(=O)(=O)N(C)C)CC2)cc(OC)c1	i
39	C=CCn1c(=O)c2c(nc3n2CC(C)CN3c2ccc(OC)cc2OC)n(C)c1=O (centres undefined)	i
40	O=C(CSc1nccn2nc(-c3ccccc3)cc12)Nc1ccc2c(c1)OCCO2	i

# (next part)
nr	SMILES	GIRK2 act
41	O=C(NCCC(O)c1ccc2c(c1)OCO2)c1ccco1 (centres undefined)	i
42	COc1ccccc1C1(C(=O)N2CCN(c3cccc(Cl)c3)CC2)CCOCC1	i
43	O=C(NCCS(=O)(=O)N1CCC2(CC1)OCCO2)c1ccc2c(c1)OCO2	i
44	O=C(c1cccnc1)N1CCC(CNS(=O)(=O)c2ccc(Cl)cc2)CC1	i
45	CC1CCN(C(=O)c2cnc3ccccc3c2S(=O)(=O)c2ccccc2)CC1	i
46	Cc1noc(-c2ccc(NC(=O)c3cn(C)nn3)cc2)n1	i
47	O=C(NCCC(O)c1ccoc1)C1CC=CCC1 (centres undefined)	i
48	Cc1nc(-c2ccco2)sc1CNS(=O)(=O)c1ccc2c(c1)OCCO2	i
49	COc1ccc(S(=O)(=O)N2CCn3cccc3C2c2ccccc2F)cc1C (centres undefined)	i
50	O=C(c1csc(-c2ccccc2)n1)N1CCC(Oc2ncccc2Br)CC1	i
51	COC1CCN(C(=O)c2ccc(F)cc2Cl)CC1	i
52	CCn1c(=O)c2ccccc2n(Cc2nc(-c3ccc(F)c(Br)c3)no2)c1=O	i
53	NC(=O)CSc1nnc(N2CCN(C(=O)c3cccc(Cl)c3)CC2)s1	i
54	O=S(=O)(NC1CCCC1)c1cccc2cnccc12	i
55	CCOC(=O)N1CCN(C(=O)Nc2nc(CC(=O)NCc3ccncc3)cs2)CC1	i
56	CCOC(=O)c1cnn2ccc(NC(=O)c3ccc(Cl)s3)cc12	i
57	CCOc1ccc(-n2nnc3c(=O)n(Cc4nc(-c5cccc(Cl)c5)no4)cnc32)cc1	i
58	O=C(CCS(=O)(=O)c1ccccc1)N1CCC(c2nnc(C3CC3)o2)CC1	i
59	CCOc1ccc(OCCNS(=O)(=O)c2ccc(C(F)(F)F)cc2)cc1	i
60	Cc1ccc(N2N=C(C(=O)NCC3CCCO3)S(=O)(=O)c3cc(F)ccc32)cc1 (centres undefined)	i

# Three structures already listed, sorted by SMILES length, descending:
nr	SMILES	GIRK2 act
58	O=C(CCS(=O)(=O)c1ccccc1)N1CCC(c2nnc(C3CC3)o2)CC1	i
42	COc1ccccc1C1(C(=O)N2CCN(c3cccc(Cl)c3)CC2)CCOCC1	i
53	NC(=O)CSc1nnc(N2CCN(C(=O)c3cccc(Cl)c3)CC2)s1	i

# Continued:
nr	SMILES	GIRK2 act
61	N#Cc1nc(-c2cccs2)oc1N1CCN(C(=O)c2cccc(Cl)c2)CC1	i
62	CSc1ccc(/C=C2\C=C(CC(=O)N3CCOCC3)c3cc(F)ccc32)cc1	i
63	Cc1ccc(-c2noc(CSc3nc4cc5c(cc4c(=O)n3C)OCO5)n2)cc1C	i
64	COC(=O)c1ccc(C(=O)N2CC(Oc3nc4c(Cl)cccc4s3)C2)cc1	i
65	CCOc1ccc2nc(NC(=O)c3ccc(-n4ccnc4)nn3)sc2c1	i
66	CC(=O)NCCNC(=O)CCc1nc2sc3c(c2c(=O)[nH]1)CCCCC3	i
67	Cc1noc(C)c1CC(=O)NCc1sc2nc(-c3ccc(F)cc3)cn2c1C	i
68	CCOc1ccc(N2CC(C)Cn3c2nc2c3c(=O)n(CCCO)c(=O)n2C)cc1 (centres undefined)	i
69	CCCNC(=O)/C(C#N)=C1\N=C(NC(=O)c2cccs2)c2ccccc21	i
70	CN(C)S(=O)(=O)c1ccc(C(=O)Nc2ccc(SCC(=O)N3CCCC3)nn2)cc1	i
71	CC(=O)S[C@@H]1CC2=CC(=O)CC[C@]2(C)[C@H]2CC[C@@]3(C)[C@@H](CC[C@@]34CCC(=O)O4)[C@H]12	i
72	O=C(c1cc(=O)c2ccccc2o1)N1CCC(CSC2=NCCS2)CC1	i
73	O=C(Cn1nc(-c2cccs2)c2sc(N3CCCCC3)nc2c1=O)OCc1ccccc1	i
74	COc1ccc(CCC(=O)Nc2cc(C3CC3)nn2-c2nc(-c3ccccc3)cc(=O)[nH]2)cc1	i
75	O=S(=O)(NCCc1nc2ccccc2[nH]1)c1ccc(Cl)cc1	i
76	CCCCn1c(=O)c2c(nc3n2CCCN3c2ccccc2OC)n(C)c1=O	i
77	CCOC(=O)N1CCC(NC(=O)C2CCC(CNS(C)(=O)=O)CC2)CC1 (centres undefined)	i
78	O=C(c1ccc(S(=O)(=O)NCc2ccco2)o1)N1CCOCC1	i
79	Cc1ccc(Cl)cc1NCCn1c(C)cn2c3c(=O)n(C)c(=O)n(C)c3nc12	i
80	CS(=O)(=O)Nc1cccc(NC(=O)Cc2csc(-n3cccc3)n2)c1	i

# Other results follow.
nr	SMILES	GIRK2 act
81	COc1ccc(C)cc1NC(=O)Cn1cc(-c2nc(-c3cccc(F)c3)no2)c(=O)c2ccc(C)nc21	i
82	CC1CCC(NC(=O)CSc2ncnc3c(-c4ccccc4)c[nH]c23)CC1 (centres undefined)	i
83	Cc1ccc(C)c(S(=O)(=O)NCCc2nc(C3CC3)cc(C(F)(F)F)n2)c1	i
84	COc1ccc(OC)c(NC(=O)Cn2nc3ccc(-c4ccc(C)cc4)nn3c2=O)c1	i
85	COc1ccc(-c2nnc(SCC(=O)Nc3cc(C)ccc3C)n2N)cc1OC	i
86	CC(C)c1ccc(CNC(=O)C2CCN(c3ncccc3S(=O)(=O)N3CCOCC3)CC2)cc1	i
87	Cc1cc(N2C(=O)CCS2(=O)=O)ccc1S(=O)(=O)Nc1ccccc1F	i
88	O=S(=O)(Nc1cnc(N2CCCC2)nc1)c1ccc(OC(F)(F)F)cc1	i
89	Clc1ccc(CN2CCCC(COCc3ccccc3)C2)cc1 (centres undefined)	i
90	COc1cc(C(=O)Nc2nccs2)c(Br)c(OC)c1OC	i
91	O=C(CCS(=O)(=O)c1ccccc1)Nc1nnc(C2CC(=O)N(c3ccccc3)C2)o1 (centres undefined)	i
92	O=C(CSc1nccn1-c1cccc(C(=O)NCc2ccco2)c1)Nc1ccccc1F	i
93	O=S(=O)(CCOc1ccccc1)NCc1ccccc1	i
94	O=C(Cn1cnc2ccccc21)Nc1cnc(Oc2ccccc2F)nc1	i
95	CCOC(=O)N1CCc2c(nc(-c3ccc(F)cc3)n(CC(=O)Nc3c(C)cc(C)cc3C)c2=O)C1	i
96	COCCN1CCc2nc(SCc3nc(-c4ccc(C)cc4)oc3C)[nH]c(=O)c2C1	i
97	NC(=O)c1ccccc1OCC#CCNC(=O)/C=C/c1cccs1	i
98	O=C(CSc1nnc2c(=O)n(Cc3ccccc3F)ccn12)NCC1CCCO1 (centres undefined)	i
99	O=C(NCCc1ccccc1)C1CCCN(c2nc3c(-c4ccccc4)csc3c(=O)[nH]2)C1 (centres undefined)	i
100	Cc1cccc(C)c1NC(=O)CN1CCC(c2nc(-c3cccc(F)c3)no2)CC1	i

# Brought forward from above: 2 compounds, followed by the next part.
nr	SMILES	GIRK2 act
99	O=C(NCCc1ccccc1)C1CCCN(c2nc3c(-c4ccccc4)csc3c(=O)[nH]2)C1 (centres undefined)	i
100	Cc1cccc(C)c1NC(=O)CN1CCC(c2nc(-c3cccc(F)c3)no2)CC1	i
101	CCCCc1ccc(NC(=O)c2coc(NC(=O)c3cnccn3)n2)cc1	i
102	CN(Cc1ccccc1)c1oc(-c2ccc(S(=O)(=O)N3CCCC3)cc2)nc1C#N	i
103	O=C(NCc1ccccc1Cl)C1CCN(c2ncccc2-c2nc(-c3ccccc3)no2)CC1	i
104	CC(Cn1nc(-c2cccs2)ccc1=O)C(=O)Nc1nc2ccccc2[nH]1 (centres undefined)	i
105	CCOc1ccc(-n2c(N3CCSC3)nc3cc(C(=O)OC)ccc3c2=O)cc1	i
106	CCNC(=O)N1CCC(c2nnc(-c3ccco3)s2)CC1	i
107	COC(=O)c1ccccc1NC(=O)c1cn(CC(O)c2ccccc2OC)nn1 (centres undefined)	i
108	COc1ccccc1-c1noc(Cn2ncn3nc(-c4cccs4)cc3c2=O)n1	i
109	COc1ccc(-c2noc(-c3nnn(-c4ccc(Br)cc4F)c3N)n2)cc1	i
110	CCSc1nnc(NC(=O)c2cnn(-c3nc(C)cc(=O)[nH]3)c2C)s1	i
111	O=C(Nc1nc(C(=O)N2CCc3ccccc32)co1)c1cnccn1	i
112	Cc1cc(NC(=O)C(=O)c2c[nH]c3ccccc23)n(-c2nc(-c3ccc(Cl)cc3)cs2)n1	i
113	COc1ccc(N2CC(c3nc(-c4ccc(N(C)C)cc4)no3)CC2=O)cc1 (centres undefined)	i
114	O=C(Nc1cccs1)Nc1nc2c(F)cc(F)cc2s1	i
115	CCOc1ccc(-c2csc3c(=O)n(CC#N)cnc23)cc1OCC	i
116	Cc1cc(CCNC(=O)C(=O)c2c[nH]c3ccccc23)on1	i
117	Cc1ccc(Cn2c(NCc3ccco3)nc3c2c(=O)n(C)c(=O)n3C)cc1	i
118	CCC(=O)N1CCN(C(=O)C(NC(=O)c2ccccc2C)S(=O)(=O)c2ccc(Cl)cc2)CC1 (centres undefined)	i
119	O=C(Nc1ccc2c(c1)CCCN2S(=O)(=O)c1ccccc1)c1ccno1	i
120	CC1=C(C(=O)Nc2cc(Cl)c3[nH]ncc3c2)C(c2ccc(C(F)(F)F)cc2)CC(=O)N1 (centres undefined)	i

# A second format for some results above:
No.	GIRK2 act	Molecule
6	i	O=C(Cn1cnc2c(sc3cccc(F)c32)c1=O)Nc1ccc(Br)cc1F
7	i	Cc1noc(C)c1CCC(=O)N1CCC(Oc2cnccn2)CC1
8	i	O=C(Cn1cnc2c(-c3ccncc3)nsc2c1=O)Nc1cccc(Cl)c1
9	i	CCOc1ccc(N(C)S(=O)(=O)c2ccsc2C(=O)NC2CCCCC2)cc1

# Following part.
nr	SMILES	GIRK2 act
121	O=C(c1ccc2c(c1)OCO2)N1CCN(Cc2nc(C3CC3)cs2)CC1	i
122	Cc1csc(COc2ccc(C(=O)Nc3ccc4cn[nH]c4c3)cc2)n1	i
123	O=C(CCCN1CC=C(n2c(=O)[nH]c3ccccc32)CC1)c1ccc(F)cc1	i
124	CCOc1ccccc1C(=O)NC1CC(=O)N(c2cccc(OC)c2)C1 (centres undefined)	i
125	Cc1cc(=O)n(CC(=O)Nc2cccc(F)c2)c(N2CCOCC2)n1	i
126	O=C(O)/C=C/c1ccc(Cn2ccnc2)cc1	i
127	COc1cc2sc(C)nc2c2sccc12	i

# Results in sequence from the entries so far:
# Entries 121 to 126 in GIRK2 act read i, i, i, i, i, i
